Assay outcomes (PubChem)
Rce1 inhib: inhibitors of yeast Ras-converting enzyme. 290,000 tested, 0.27% active. yeast membranes, quenched prenylated peptide cleavage fluorescence. calls only. Q03530;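 active = fall in fluorescence gain of 50% or more versus controls, with final raw signal at or below 3038400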;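 also: plate controls were neutral control wells for no effect and wells lacking membranes for full effect; tested at 10 µM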
PABP FP inh: blocks human PABP binding to poly(A) RNA | AID 2014 | 290,000 tested, 1% active | inhibition, % at 35 µM | fluorescence polarization;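 active = 50% or more with normal probe brightness, or confirmed in later tests; about a fifth of its hits are not listed in these tables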;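 also: calls also rest on retests at 20 µM and on dose response follow-up; controls were probe without protein and protein plus probe with vehicle; some compounds called inactive have numbers as strong as hits; many hits fall short of the cut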
Target sequence (P11940 whole entry, looked up): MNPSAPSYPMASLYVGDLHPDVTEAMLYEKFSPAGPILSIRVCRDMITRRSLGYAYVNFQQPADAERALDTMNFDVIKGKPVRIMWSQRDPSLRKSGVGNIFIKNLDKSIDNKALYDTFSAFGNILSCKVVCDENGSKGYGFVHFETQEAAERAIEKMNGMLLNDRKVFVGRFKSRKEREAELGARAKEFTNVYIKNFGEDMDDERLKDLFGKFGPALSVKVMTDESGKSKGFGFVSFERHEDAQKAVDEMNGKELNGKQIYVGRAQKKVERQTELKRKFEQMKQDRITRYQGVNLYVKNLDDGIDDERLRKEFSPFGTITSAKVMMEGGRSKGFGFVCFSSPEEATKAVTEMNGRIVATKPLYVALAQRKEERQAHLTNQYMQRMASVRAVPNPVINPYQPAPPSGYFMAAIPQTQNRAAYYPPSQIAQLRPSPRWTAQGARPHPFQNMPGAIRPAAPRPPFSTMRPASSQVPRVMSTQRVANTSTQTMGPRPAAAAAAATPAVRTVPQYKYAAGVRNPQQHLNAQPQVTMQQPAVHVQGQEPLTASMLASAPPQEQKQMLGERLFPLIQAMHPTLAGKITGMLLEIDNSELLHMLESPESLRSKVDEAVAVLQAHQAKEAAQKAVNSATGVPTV
MT1-MMP act inh: blocks activation of human MT1-MMP | P50281 | HT1080 RFP-PRO-GFP cells, GFP/RFP ratio fluorescence, overnight; percent of plate control window, DMSO zero | GFP/RFP ratio change, % at 20 µM | 360,000 tested, 0.061% active;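 active = GFP/RFP ratio change of at least 30% with cell ATP level not reduced by more than half and red fluorescence within 50% of control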; also: strong numbers were not always called active
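Assay system: HT1080 cells carrying an RFP-PRO-GFP reporter | Dosing: Single dose of 20 µM compound, 1% DMSO final | Incubation: Cells overnight before dosing, compound overnight, 37 °C, 5% CO2 | Evaluation: GFP/RFP fluorescence ratio | Control set: DMSO and RFP-L50D-GFP cell wells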
Env fusion inh: HIV envelope-mediated fusion inhibition; AID 651610; HeLa-JRFL Env/CEM21 cell fusion, luciferase; 360,000 tested, 1.1% active; inhibition, % at 12.3 µM;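 active = mean replicate inhibition score of at least 50 and every replicate individually at or above 50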;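 also: 0% = plate neutral controls and 100% = maraviroc near 300 nM; one replicate is shown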
CSC inhib: cancer stem cell inhibition. cancer stem cell-like cells viability, luminescence. inhibition, % at 7.5 µM. 300,000 tested, 1.1% active. AID 2717;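 active = mean at 75% or more and at least half the replicates too; tested in HMLE shEcad cells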;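 also: 0% = median of negative and 100% = median of positive control wells; the first replicate is given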
UUG fidelity: alters start codon recognition fidelity in yeast; 350,000 tested, 0.13% active; S. cerevisiae UUG-firefly luciferase reporter, luminescence/redox ratio; activity score, % at 18.7 µM;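 active = replicate mean at a twofold rise or more, about +100% in these data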;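 also: firefly luciferase made from a UUG start codon reports start codon fidelity; reporter light over untreated wells divided by growth signal over untreated wells; some hits fall short of that in this replicate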
eIF4H inh: inhibitors of RNA binding by human eIF4H. Q15056. eIF4H fluorescence polarization binding assay. inhibition, % at 35 µM. 290,000 tested, 0.94% active. AID 2012;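 active = 50% or more with normal probe brightness, or confirmed in later tests; about a fifth of its hits are not listed in these tables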;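 also: calls also rest on retests at 20 µM and on dose response follow-up; 0% = protein and probe with vehicle and 100% = probe without protein; strong numbers were not always called active; many hits fall short of the cut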
MT1-MMP act inh RFP: second read-out of MT1-MMP act inh, no call of its own (marks repeat the call); RFP signal change, %; measured here: RFP expression control read;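 0 = vehicle wells; hits needed this value within 50% of zero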
* hit, by the source's call; i = inactive; nt = not tested or not shown. Compounds were not picked by outcome (roughly 2.9% active in at least one column).

SMILES	Rce1 inhib	PABP FP inh	MT1-MMP act inh	MT1-MMP act inh RFP	Env fusion inh	CSC inhib	UUG fidelity	eIF4H inh
COc1cc(S(=O)(=O)NCc2ccc3c(c2)OCO3)ccc1Cl	i	-1	2	2	-12	-1	-3	-6
COC1C=CC(CNC(=O)c2cc3c(=O)n4cccc(C)c4nc3n2C)(OC)O1 (stereo not given)	i	-1	9	4	-5	8	nt	36
Cc1cccc(C)c1NC(=O)NC1(C(=O)N2CCN3CCCC3C2)CCCCC1 (stereo not given)	i	2	-2	1	12	-11	-26	5
CCc1ccc(C(=O)OCC(=O)N(CC)c2c(N)n(Cc3ccccc3)c(=O)[nH]c2=O)cc1	nt	nt	-4	3	-2	-8	-22	nt
CCNC(=O)c1c(C)nc2ccccn12	i	10	-1	3	nt	-15	-6	6
CC(=O)Oc1c(S(=O)(=O)c2ccccc2)c(C)nn1C(C)(C)C	i	-8	4	6	-19	0	25	-7
COc1ccc(-c2cc(C)no2)cc1S(=O)(=O)N1CCOc2ccc(Cl)cc21	i	26	-18	-2	13	-15	nt	33
Cn1c(N)c(C(=O)COC(=O)CSc2ccccc2)c(=O)n(C)c1=O	i	38	-3	3	1	nt	nt	11
C/C=C(/C)C(=O)O[C@@H]1Cc2c(ccc3ccc(=O)oc23)OC1(C)C	nt	nt	0	-4	-7	7	-12	nt
Cc1noc(C)c1COc1ccc(C(=O)OC(C)C(=O)Nc2ccc(N3CCOCC3)cc2)cc1 (stereo not given)	i	2	-12	-15	nt	7	-18	0
Cc1ccc(-n2ncc(C#N)c2/N=C/N2CCCCCC2)cc1	nt	1	-1	-7	nt	-29	-3	-2
COc1cc(O)c(C(CCN2CCCC(C)C2)c2ccc(N(C)C)cc2)c(OC)c1 (stereo not given)	i	4	-1	5	-25	13	-24	8
COc1ccc(CSc2nc3nc(C)cc(C)n3n2)cc1F	i	-2	1	0	5	-2	-10	-6
N#Cc1ccccc1NC(=O)c1ccccc1OCC(=O)NCc1ccco1	i	-1	-4	-6	nt	-1	-6	3
O=C(OC1CCOC1=O)c1cccc(S(=O)(=O)N2CCc3ccccc3C2)c1 (stereo not given)	i	-10	1	2	-7	-1	nt	-3
Nc1nonc1-n1nnc(C(=O)N/N=C/c2ccccc2)c1CN1CCc2ccccc21	i	-6	-5	0	11	nt	-1	4
COc1ccc(CN(C)C(=O)Cn2ccc(NC(=O)OCc3ccccc3)nc2=O)cc1OC	nt	nt	2	1	-23	-8	-14	nt
CCOc1ccc(CCNC(=O)c2cccc(NC3=NC4CS(=O)(=O)CC4S3)c2)cc1 (stereo not given)	i	-1	11	-7	-10	-6	-1	1
COc1cc(-c2nc(-c3cccc(C(F)(F)F)c3)no2)cc(OC)c1OC	i	-6	-2	-5	33	30	-16	-8
CCCCCCN1C[C@@H](O)[C@H](n2cc(COC(=O)c3ccccc3)nn2)C[C@@H]1c1ccc(C)cc1	nt	nt	-4	-2	-29	nt	-2	nt

Next section; the last three above are carried over.
SMILES	Rce1 inhib	PABP FP inh	MT1-MMP act inh	MT1-MMP act inh RFP	Env fusion inh	CSC inhib	UUG fidelity	eIF4H inh
CCOc1ccc(CCNC(=O)c2cccc(NC3=NC4CS(=O)(=O)CC4S3)c2)cc1 (stereo not given)	i	-1	11	-7	-10	-6	-1	1
COc1cc(-c2nc(-c3cccc(C(F)(F)F)c3)no2)cc(OC)c1OC	i	-6	-2	-5	33	30	-16	-8
CCCCCCN1C[C@@H](O)[C@H](n2cc(COC(=O)c3ccccc3)nn2)C[C@@H]1c1ccc(C)cc1	nt	nt	-4	-2	-29	nt	-2	nt
COc1ccc(NS(=O)(=O)c2ccc(C)c(C(=O)N(C)CC(=O)Nc3cccc(OC)c3)c2)cc1	i	nt	3	0	-3	-10	-6	nt
O=C(CN1C(=O)C2CC=CCC2C1=O)Nc1nnc(SCc2ccc(F)cc2)s1 (stereo not given)	i	5	3	2	15	16	-1	-3
Cc1cc(C)nc(N/N=C/c2ccc(Cl)cc2)n1	i	7	1	-2	-3	-5	-3	-9
COc1ccc(/C=C2/C(=O)N(Cc3ccccc3)N=C2C)cc1	i	-2	12	7	-8	-9	nt	2
CCOC(=O)c1c(NC(=O)c2ccc(Br)o2)sc2c1CCCC2	i	-3	-1	-1	-16	-7	-17	-2
CSc1nc(C(=O)N2CCCC(C(=O)c3ccc(Cl)cc3)C2)cs1 (stereo not given)	i	4	-4	0	31	2	nt	-3
CN(CC(=O)NCCc1ccc(S(N)(=O)=O)cc1)CC(=O)Nc1ccc(F)c(F)c1F	nt	nt	-3	1	-1	-17	-14	nt
COc1ccc(Cl)c2sc(N(CCN(C)C)C(=O)c3ccc4c(c3)OCCO4)nc12	i	nt	-1	-1	-7	-9	nt	nt
c1ccc2c(c1)ccc1nnc(SCc3ccc4c(c3)OCO4)n12	i	-4	1	-2	1	-10	-26	-9
CNC(=O)C(NC(=O)c1ccccc1)=C(C)C	i	-3	0	1	3	-6	-5	2
CC(=O)c1cnc2nc(SCc3ccc(C)cc3)nn2c1C	i	8	-2	2	5	1	-20	-11
CCCN1C(=O)/C(=C/c2ccc(OCC(=O)OCC)cc2)NC1=S	i	-15	1	2	12	nt	nt	-1
O=[N+]([O-])c1ccc(Oc2ncccn2)cc1	i	nt	-3	-2	3	-7	-2	nt
COCCN(CCOC)c1nc(N)c2c(N)nc3c(c2c1C#N)CC(=O)N3Cc1ccc(Cl)cc1	i	11	0	-6	15	5	nt	3
N#Cc1cc(C(=O)c2cc(Br)ccc2O)cn(Cc2ccccc2)c1=O	i	0	-7	-15	12	-1	nt	1
Cc1ccc2oc(NC(=O)N3CCOCC3)cc(=O)c2c1	i	-4	-6	-5	-25	11	-14	-5
CCCSc1nc(N)nc(-c2cccs2)c1C#N	i	-1	-2	-7	nt	-4	-4	-9
CCOC(=O)C1CCN(Cc2cnc(Oc3ccc(Cl)cc3C)s2)CC1	i	-8	-2	-3	-27	2	-13	-5
COc1ccc(CN(C)C(=O)C(Cc2ccccc2)NC(=O)c2ccccc2)c(OC)c1OC (stereo not given)	nt	nt	-7	-9	-15	nt	-8	nt
CCN(CC)CCCNc1cc2n(c(=O)n1)CCc1cc(OC)c(OC)cc1-2	i	-3	0	6	nt	-6	-16	0
O=C(Nc1c(C(=O)O)[nH]c2ccccc12)c1cccc(C(F)(F)F)c1	i	2	0	2	-13	10	nt	-11
C/C(CC(=O)NCc1ccc(Cl)cc1)=N\NC(=O)COc1ccc(C)cc1Br	i	15	-7	-1	20	nt	-8	0
COc1cccc(C(=O)O/N=C(\N)c2ccncc2)c1OC	i	9	2	-1	nt	-6	nt	-1
COC(OC)C12c3ccccc3C(c3ccccc31)C1C(=O)N(c3cccnc3)C(=O)C12 (stereo not given)	i	-5	-5	-4	-6	0	5	7
Cc1cccc(NC(=O)C(C)Oc2ccc(C)nc2[N+](=O)[O-])c1 (stereo not given)	nt	nt	4	2	nt	10	16	nt
CCC(=O)Nc1ccc(C(=O)CSc2nnc(-c3cccnc3)o2)cc1	i	11	-6	0	16	nt	-8	0
Cc1ccc(C)c(C(=O)CN2C(=O)NC3(CCCCCC3)C2=O)c1	nt	nt	1	1	-113	nt	-7	nt
O=C(NCCc1csc(-c2cccnc2)n1)c1cccs1	i	-9	-2	0	12	11	-18	2
C#CCOCCOCCOCCNc1nc(N2CCOCC2)nc(N2CCN(C(=O)[C@H]([C@@H](C)CC)n3cc([C@@H](N)CO)nn3)CC2)n1	i	1	6	0	-11	-7	-1	-6
Cc1ccc(NC(=O)CN(C)C(=O)c2cccnc2Nc2cccc(C(F)(F)F)c2)cc1	i	-4	7	4	21	70	2	-6
COc1ccc(C(=O)NC2=NCCS2)c(OC)c1	i	-8	1	0	-33	-17	-35	4
Cc1csc(NC(=O)CSc2nncs2)n1	i	nt	0	3	nt	-5	-11	nt
Cn1c(C(=O)N2CCc3ccccc3C2)cc2oc3ccccc3c21	i	2	7	2	nt	28	-16	-15
Cc1ccc(NC(=O)c2ccco2)cc1	nt	nt	-3	-1	-229	nt	14	nt
CCN(CC(=O)NCCc1ccccc1)S(=O)(=O)c1ccccc1	i	4	0	1	4	-12	-8	-2
CCOC(=O)c1nn(-c2ccccc2)c(=O)c(C#N)c1C	i	16	2	2	nt	16	-16	9
Cc1ccc(NC(=O)COC(=O)c2ccc3c(c2)C(=O)N(CCc2ccccc2)C3=O)c(C)c1	i	-1	-4	-4	-9	-5	nt	-12
Cc1ccc(CN2CCC(CNC(=O)C3CCCN(c4ncnc5c4nc4n5CCCCC4)C3)CC2)cc1 (stereo not given)	i	-6	3	-8	3	nt	-15	-11
CCn1c2c(c(=N)c3c1CCC3)CCC2	i	14	-2	-7	31	9	nt	-3
COc1ccc(/C=C(/NC(=O)c2ccc([N+](=O)[O-])cc2)C(=O)NC(C)(C)C)cc1	i	-26	-4	4	13	-2	-5	-1
O=C(NC(Nc1ncccn1)C(=O)c1ccccc1)c1ccccc1 (stereo not given)	i	-4	-1	-1	nt	-13	-19	-1
CCOC(=O)/C=c1\s/c(=C\c2ccc(C(=O)OC)cc2)c(=O)n1CC(=O)Nc1ccccc1	i	-3	-1	1	9	2	-54	-8
Cc1ccc(-c2csc(NC(=O)CSc3nc4ccccc4c(=O)n3CCCN(C)C)n2)cc1	i	27	-4	-5	-18	15	nt	-8
COc1ccc(N2CCN(S(=O)(=O)CCNC(=O)c3cccs3)CC2)cc1	i	nt	0	-1	-3	-5	nt	nt
Cc1ccc(NCc2nnc(SCC(=O)Nc3nnc(C)s3)n2C)cc1	i	4	0	-1	-8	-8	nt	0
Cc1[nH]n(CCC#N)c(=O)c1CC(=O)N1CCN(c2ccccc2)CC1	i	9	16	5	nt	-3	8	10
CCCn1nnnc1SCC(=O)NC1CCCC1	i	14	1	5	-4	nt	-6	-1
O=C(Nc1nccs1)c1cn(-c2ccccc2)nc1-c1ccccc1	i	-5	-5	-11	nt	-3	-43	-1
CC1CC(C)CN(C(=O)COC(=O)c2cccc(S(=O)(=O)N(C)c3ccccc3)c2)C1 (stereo not given)	nt	nt	5	-5	-2	nt	-3	nt
CCOC(=O)c1ccc(N2C(=O)CC(N3CCC(C(=O)OCC)CC3)C2=O)cc1 (stereo not given)	i	8	10	9	nt	4	-14	0
COC(=O)c1nc(NC(=O)c2ccc(C(C)(C)C)cc2)n[nH]1	i	2	1	2	-3	nt	nt	-10
Cc1ccccc1NC1=NC2(CCCC2)N=C(N)N1	i	3	1	5	1	0	nt	-7
CCC(=O)N(CCC1(C(C)C)CCOC(C)(C)C1)C(C)c1cccs1 (stereo not given)	i	-4	-2	-2	16	-7	nt	-3
C=CCOCC(O)Cn1c(N2CCCC2)nc2c1c(=O)n(C)c(=O)n2C (stereo not given)	i	-1	1	-1	-7	nt	-10	-2
CCOc1ccc(NC(=O)NCCN2C(C)CCCC2C)cc1 (stereo not given)	nt	2	8	4	-11	nt	-10	-2
CCN(CC)c1ccc2nc3ccc(N)cc3[n+](-c3ccccc3)c2c1	nt	nt	70	50	72*	nt	-10	nt
O=Cc1cc2ccccc2nc1SCc1ccc(Cl)cc1	i	-12	10	-3	nt	88*	nt	2
COc1ccc(-c2[nH]ncc2CN(C)Cc2ccccn2)c(OC)c1	i	10	1	2	23	3	nt	18
CC(NC(=O)COc1ccccc1)C(c1cccs1)N1CCCC1 (stereo not given)	i	-5	-2	2	10	-9	nt	-6
COc1ccc(Cn2nnc(C(=O)Nc3ccc(F)cc3)c2N)cc1	i	0	0	-1	9	-9	-20	-11
O=C(COC(=O)c1cccc(N2C(=O)c3ccccc3C2=O)c1)Nc1ccccc1	i	-5	-1	-3	0	nt	-3	-4
